Screening data as filed in PubChem.
CtBP-E1A inh: blocks the CtBP interaction with E1A | AID 651724 | AlphaScreen GST-E1A/His-CtBP binding, 1536-well; hits give low values; control for the full effect not named in the record | 340,000 compounds, 0.49% hits | activity change, % (no concentration beside the values); in the data active means activity change below about -65%; inconclusive means about -30% to -65%; inactive means above about -30%; also: % is scaled to controls: 0 for no effect and ±100 for the full control effect
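AlphaScreen with 125 nM GST-E1A and 125 nM His-CtBP (5X stocks) in Tris pH 8.0, 300 mM NaCl, BSA, Tween 20, TCEP. Compounds preincubated 2 h at 37 deg C, then glutathione donor/nickel acceptor beads added for 1 h at 37 deg C in dark.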
TRPML1 agonist: activates the human TRPML1 channel; Q9GZU1; TRPML1-expressing cells, Ca2+ dye fluorescence, FDSS; host cell line not named in the record; reference of the full effect not given here; activation, % (no concentration beside the values); 410,000 compounds, 0.12% hits; in the data active = activation above about 50%; inconclusive = about 30% to 50%; inactive = below about 30%; also: 0% is about no effect; the text of the record puts the active cut at 80%
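Calcium fluorescence on an FDSS kinetic reader gave the read-out. Tet-induced TRPML1-DL cells were plated overnight, dye-loaded (Ca8 with quencher, 45-90 min, room temperature, dark), then read 110 s after compound addition, and again 110 s after 4uM final 54-4 (EC80).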
D2 agonist: human D2 receptor agonism in beta-arrestin assay; P14416; DiscoveRx PathHunter D2 beta-arrestin, luminescence, 90 min; 100% = 57 uM dopamine signal; activation, % (concentration not given with the values); 360,000 compounds, 0.084% hits; AID 624465; in the data active = activation above about 40%; inconclusive = about 15% to 40%; inactive = below about 15%; also: the text of the record calls up to 30% inactive
Target sequence (P14416 whole entry, looked up): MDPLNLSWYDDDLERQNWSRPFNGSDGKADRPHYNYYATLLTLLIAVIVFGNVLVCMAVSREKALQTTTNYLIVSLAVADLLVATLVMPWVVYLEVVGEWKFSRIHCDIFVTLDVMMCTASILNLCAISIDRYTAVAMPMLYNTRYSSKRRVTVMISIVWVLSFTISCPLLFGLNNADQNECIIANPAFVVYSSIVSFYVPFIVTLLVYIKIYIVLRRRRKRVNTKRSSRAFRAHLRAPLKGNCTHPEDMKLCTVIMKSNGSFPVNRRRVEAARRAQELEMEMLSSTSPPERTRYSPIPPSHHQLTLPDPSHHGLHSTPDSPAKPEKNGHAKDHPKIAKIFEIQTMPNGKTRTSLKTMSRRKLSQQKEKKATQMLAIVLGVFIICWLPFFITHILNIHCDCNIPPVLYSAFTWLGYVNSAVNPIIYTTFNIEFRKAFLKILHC
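DiscoveRx PathHunter D2 beta-arrestin cells (2,100/well) attached overnight, then compound-stimulated 90 min at 37 C in HBSS/10 mM HEPES/0.1% Tween-20 buffer; beta-galactosidase complementation read by luminescence after 1 h at ambient temperature. Dopamine 57 uM final (EC100) as control.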
Six1-Eya2 inh: blocks human Six1 binding to Eya2; Q15475+O00167; AlphaScreen GST-Six1/His-Eya2 binding, biochemical; hits give low values; control for the full effect not named in the record; activity change, % (no concentration beside the values); 360,000 compounds, 0.56% hits; AID 651725; in the data active = activity change below about -65%; inconclusive = about -30% to -65%; inactive = above about -30%; also: % is scaled to controls: 0 for no effect and ±100 for the full control effect
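Compounds are tested against tagged Six1 and Eya2 proteins bridged by glutathione donor and nickel acceptor beads; after a one-hour incubation at 37 °C without light, AlphaScreen emission is recorded.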
PINK1 modulator: PINK1 expression modulation; PINK1 immunofluorescence, high-content cytometry, 24 h; Potency, µM (highest dose often 76.6 µM), for the others: top-dose activation (PINK1 increase), most hits filed as activators; 410,000 compounds, 0.2% hits; active = well fitted activation curve with a large enough effect; inconclusive = small, poorly fitted or top-dose-only effect; inactive = flat fitted curve, though single readings scatter; cell line not stated here;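 also: potency is read from the fitted curve at half-maximal effect; % of control where 0% means no effect; nearly all actives have a fitted effect of over 65% in size; a mitochondrial uncoupler was the plate control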
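A stable cell line was treated with compounds at 5 concentrations for 24 hours, with CCCP as control. PINK1 levels and mitochondrial localization were measured by immunofluorescence with mitochondrial, cell and nuclear markers after fixation, read by laser-scanning cytometry.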
D2 potentiator: potentiates the human D2 dopamine receptor allosterically. P14416. DiscoveRx D2 beta-arrestin cells, luminescence, 90 min; 100% = 57 uM dopamine signal. potentiation, % (test concentration not listed). 360,000 compounds, 0.23% hits. AID 624464; active = potentiation of 50% or more; inconclusive = 30% to 50%; inactive = 30% or less;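 also: compound concentration not given in the record; tested on top of an EC20 dose of dopamine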
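D2 cells co-treated with compound plus 50 nM dopamine (EC20) for 90 min at 37 deg C to detect potentiation. Beta-arrestin recruitment was read as enzyme-fragment luminescence after 1 h at ambient temperature. Full response was set by 57 uM dopamine.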
* marks the source's active call; other numbers are inactive results; ? = inconclusive; . = not tested or not shown; [ ] = dose if it differs, or a comment.

item	structure	CtBP-E1A inh	TRPML1 agonist	D2 agonist
1	COc1ccc(Cc2c(-c3ccc(C)cc3)nc3c(C)cc(Br)cn23)c(C)c1	-1	1.5	-4.9
2	C=CCNC(=O)[C@@H]1CSC2c3ccc(OC)c(OC)c3C(=O)N21 (stereo partly drawn)	.	-0.8	5.4
3	CC1(C)Cc2cccc(OCC(=O)O)c2O1	-2	0.1	-2.1
4	N/C(=N/OCc1cccc([N+](=O)[O-])c1)c1nonc1N	-7	-0.6	-2.3
5	CC1=NOC(=O)/C1=C/c1ccc(N(C)C)cc1	4	0.0	-3.9
6	CC(C)NC(=O)c1ccc(OC2CSC2)cc1	2	-0.4	-2.2
7	CC(=O)O[C@H]1[C@@H](O)[C@H](O)[C@H](Oc2c(O)c(C)c3c4c2[C@@H](C)CC[C@@H]4[C@@H](C)C[C@H]3C=C(C)C)O[C@H]1C	-12	0.9	-2.8
8	CCCCSc1nc2c(c(=O)[nH]c(=O)n2C)n1CCc1ccccc1	0	2.0	2.5
9	C=CCn1cccc(C(=O)Nc2ccc(Cl)cc2)c1=O	-4	.	0.6
10	O=C(Nc1ccc(O)c2c(=O)cc(-c3cccc(Cl)c3)oc12)c1ccc(F)cc1	-3	-0.5	-0.1
11	Cc1cccc(CN2CCN([C@@H]3CS(=O)(=O)N[C@H]3COCc3ccccc3)CC2)c1	2	-0.4	-3.9
12	Cc1c(C(=O)NCc2ccccn2)oc2ccc(Br)cc12	0	2.1	0.5

item	Six1-Eya2 inh	PINK1 modulator	D2 potentiator
1	1	1.6%	-5
2	-3	3.0%	-5
3	4	-0.6%	5
4	1	-2.9%	-11
5	1	1.6%[38.3 µM]	-7
6	4	0.2%	5
7	-20	-1.5%	-11
8	1	5.4%	-6
9	2	1.3%	2
10	5	1.7%	-10
11	6	0.4%	-14
12	-10	-1.0%	-10

The list goes on.
item	structure	CtBP-E1A inh	TRPML1 agonist	D2 agonist
13	COc1cccc(C(=O)NCCN2CCN(c3ccccc3)CC2)c1	5	-0.4	.
14	CC(=O)NCC(=O)OCN1C(=O)c2ccccc2C1=O	-3	0.9	2.3
15	COc1ccc(N(CC(=O)NCC2CCCO2)C(=O)CCC(=O)Nc2nccs2)c(OC)c1 (stereo not drawn)	17	-0.4	-6.1
16	CC(=O)Nc1sc(N/N=C/c2ccc(N(C)C)cc2)nc1-c1ccc(C)cc1	.	-0.7	-0.9
17	COc1ccc(C2CC(c3ccc(Cl)cc3)=NN2C(C)=O)cc1 (stereo not drawn)	2	-0.5	-1.2
18	Cc1ccc2c(Cl)c(C(=O)NC3CC3)sc2c1	1	0.2	-4.5
19	CC(=O)Nc1ccc(NC(=O)CSc2nnc(-c3ccccc3)n2Cc2ccc3c(c2)OCO3)cc1	-18	1.0	3.8
20	O=C1c2cccc3c(O)ccc(c23)C(=O)N1Cc1ccccc1	10	97*	7.6
21	COCc1cccc(-c2csc(C(O)c3ccccc3)n2)c1 (stereo not drawn)	7	-0.7	2.2
22	Cc1ccc(OCc2nnc(SCc3ccc(C#N)cc3)n2-c2ccc(C)cc2)cc1	-2	3.6	-2.0
23	Nc1ncc(Br)cc1S(=O)(=O)NCCC(=O)N1CCN(c2ccccc2)CC1	0	-0.6	-0.5
24	COc1ccc(-c2cn3cc(C(F)(F)F)cc(Cl)c3n2)cc1	-2	-1.3	0.5

item	Six1-Eya2 inh	PINK1 modulator	D2 potentiator
13	-3	-0.5%	.
14	-1	1.1%	-8
15	4	0.6%	-6
16	-4	0.8%	-17
17	3	-0.8%	-11
18	3	0.3%	-9
19	-9	-7.0%[38.3 µM]	-4
20	-4	?	17
21	7	3.2%	-7
22	-6	0.1%[38.3 µM]	-8
23	1	-0.8%	-1
24	0	2.8%	-2

(next part)
item	structure	CtBP-E1A inh	TRPML1 agonist	D2 agonist
25	COc1ccc(N2C(=O)CC(c3ccccc3)C2=O)cc1 (stereo not drawn)	-2	0.3	-4.2
26	CCC1(c2ccccc2)NC(=O)N(CC(=O)Nc2cc(C(F)(F)F)ccc2N2CCCC2)C1=O (stereo not drawn)	1	-0.2	-5.5
27	CCCNC(=O)c1nn2cc(Br)cnc2c1Br	2	3.3	1.2
28	CCN(CCCNC(=O)c1ccc(N2CCCC2=O)cc1)c1cccc(C)c1	-9	-0.6	-1.6
29	O=C(C1CCN(S(=O)(=O)N2CCCC2)CC1)N1CCCCC1	6	0.6	0.0
30	C/C(CC1(O)C(=O)N(C)c2ccccc21)=N\O (stereo not drawn)	-17	0.7	-2.3
31	Cc1nc2c(sc(=S)n2Cc2ccco2)c(=O)n1CC(=O)Nc1ccccc1	-6	-0.2	-0.9
32	Cc1cc(=O)[nH]c2ccc(S(=O)(=O)Nc3ccc(O)cc3)cc12	.	.	6.2
33	FC(F)C(F)(F)Oc1cccc(Nc2nccn3c(-c4cccc5cccnc45)cnc23)c1	-9	0.2	-3.9
34	COCCCNc1nc2ccccc2nc1NS(=O)(=O)c1cccc(Cl)c1	4	1.6	-1.9
35	CCCCn1c(N)c(N(CC(C)C)C(=O)c2ccc(-c3ccc([N+](=O)[O-])cc3)o2)c(=O)[nH]c1=O	0	-0.3	0.4
36	COc1cc(NC(=O)C(C)Oc2ccccc2)cc(OC)c1 (stereo not drawn)	3	0.5	-2.9
37	O=C(c1cccc(C(F)(F)F)c1)N1CCC(O)(CS(=O)(=O)Cc2ccccc2)CC1	-4	0.0	-0.3

item	Six1-Eya2 inh	PINK1 modulator	D2 potentiator
25	5	0.0%	-1
26	-8	2.5%	-11
27	-2	0.5%	-8
28	-12	0.0%	-9
29	4	1.3%[38.3 µM]	3
30	-6	3.4%[38.3 µM]	-4
31	-7	2.4%	-11
32	2	0.4%	20
33	-15	1.8%	-9
34	2	-2.4%	-1
35	-3	?	9
36	6	0.3%	-14
37	1	.	-7

Look-ups from the entries so far.
no. 27 in PINK1 modulator is entered as 0.5%
no. 34 in D2 potentiator is entered as -1
no. 33 in TRPML1 agonist is entered as 0.2

Ordered by the number under D2 agonist (smallest number first): three from the list above.
| cpd | smiles | CtBP-E1A inh | D2 agonist | Six1-Eya2 inh | PINK1 modulator | D2 potentiator |
| --- | --- | --- | --- | --- | --- | --- |
| 25 | COc1ccc(N2C(=O)CC(c3ccccc3)C2=O)cc1 (stereo not drawn) | -2 | -4.2 | 5 | 0.0% | -1 |
| 34 | COCCCNc1nc2ccccc2nc1NS(=O)(=O)c1cccc(Cl)c1 | 4 | -1.9 | 2 | -2.4% | -1 |
| 29 | O=C(C1CCN(S(=O)(=O)N2CCCC2)CC1)N1CCCCC1 | 6 | 0.0 | 4 | 1.3%[38.3 µM] | 3 |

Structures from the list above that have a Cl atom:
item	structure	CtBP-E1A inh	TRPML1 agonist	D2 agonist
9	C=CCn1cccc(C(=O)Nc2ccc(Cl)cc2)c1=O	-4	.	0.6
10	O=C(Nc1ccc(O)c2c(=O)cc(-c3cccc(Cl)c3)oc12)c1ccc(F)cc1	-3	-0.5	-0.1
17	COc1ccc(C2CC(c3ccc(Cl)cc3)=NN2C(C)=O)cc1 (stereo not drawn)	2	-0.5	-1.2
18	Cc1ccc2c(Cl)c(C(=O)NC3CC3)sc2c1	1	0.2	-4.5
24	COc1ccc(-c2cn3cc(C(F)(F)F)cc(Cl)c3n2)cc1	-2	-1.3	0.5
34	COCCCNc1nc2ccccc2nc1NS(=O)(=O)c1cccc(Cl)c1	4	1.6	-1.9

item	Six1-Eya2 inh	PINK1 modulator	D2 potentiator
9	2	1.3%	2
10	5	1.7%	-10
17	3	-0.8%	-11
18	3	0.3%	-9
24	0	2.8%	-2
34	2	-2.4%	-1
